Screening results as filed in PubChem.
12-hLO inh: qHTS Assay for Inhibitors of 12-hLO (12-human lipoxygenase). Polyunsaturated fatty acid lipoxygenase ALOX12 (Homo sapiens), P18054. AID 1452, 2008. actives 0.12% (n = 150,000). Potency, µM (titrated, usually from 57.1 µM), inactives show top-dose activity change, negative = inhibition, usual class: inhibitors. purified 12-hLO, xylenol orange hydroperoxide absorbance; further: potency means the concentration at half of the fitted maximal effect; nearly all actives have a fitted effect of over 55% in size; many of its hits are not listed in these tables
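Lipoxygenase turnover measured by absorbance at 573 and 405 nm after Fe-XO development. Human 12hLO 150 nM, arachidonate 40 uM, pH 7.0 Hepes buffer with detergent; 15 min compound preincubation, 30 min reaction.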
IMPase cell inh: qHTS Assay for Identifying the Cell-Membrane Permeable IMPase Inhibitors; AID 901, 2007; CHO-M1 cells, IP1 accumulation, HTRF TR-FRET ratio; Inositol monophosphatase 1 (Rattus norvegicus), P97697; inhibition (IP1 accumulation), % at 46.1 µM; 120,000 tested, under 10 active; active means well fitted curve in the direction sought with a large enough effect in the signal ratio, not every such curve was filed as active; inconclusive means small, poorly fitted or top-dose-only effect, or a change in a side signal; inactive means no such curve, though single readings can be large or run the other way; the % refers to the signal ratio;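 further: cells stimulated with carbachol in lithium chloride buffer; plate controls were DMSO basal wells for no effect and reference inhibitor wells for full effect; higher means more IMPase inhibition seen as more IP1 and lower FRET ratio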
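In this qHTS, compounds (final up to 46 uM) act on CHO-M1 cells that are then activated through the M1 receptor with carbachol, in pH 7.4 buffer containing 50 mM LiCl, for 30 min. IP1 accumulation is quantified by the IP-One immunoassay.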
15-hLO-2 inh: qHTS Assay for Inhibitors of 15-hLO-2 (15-human lipoxygenase 2). Polyunsaturated fatty acid lipoxygenase ALOX15B (Homo sapiens), O15296. purified 15hLO-2, xylenol orange hydroperoxide absorbance. Potency, µM (doses to about 57.1 µM), inactives show top-dose activity change, negative = inhibition, usual class: inhibitors. actives 0.56% (n = 110,000). AID 881, 2007; further: potency means the concentration at half of the fitted maximal effect; nearly all actives have a fitted effect of over 60% in size; many of its hits are not listed in these tables
Target sequence (O15296 whole entry, looked up): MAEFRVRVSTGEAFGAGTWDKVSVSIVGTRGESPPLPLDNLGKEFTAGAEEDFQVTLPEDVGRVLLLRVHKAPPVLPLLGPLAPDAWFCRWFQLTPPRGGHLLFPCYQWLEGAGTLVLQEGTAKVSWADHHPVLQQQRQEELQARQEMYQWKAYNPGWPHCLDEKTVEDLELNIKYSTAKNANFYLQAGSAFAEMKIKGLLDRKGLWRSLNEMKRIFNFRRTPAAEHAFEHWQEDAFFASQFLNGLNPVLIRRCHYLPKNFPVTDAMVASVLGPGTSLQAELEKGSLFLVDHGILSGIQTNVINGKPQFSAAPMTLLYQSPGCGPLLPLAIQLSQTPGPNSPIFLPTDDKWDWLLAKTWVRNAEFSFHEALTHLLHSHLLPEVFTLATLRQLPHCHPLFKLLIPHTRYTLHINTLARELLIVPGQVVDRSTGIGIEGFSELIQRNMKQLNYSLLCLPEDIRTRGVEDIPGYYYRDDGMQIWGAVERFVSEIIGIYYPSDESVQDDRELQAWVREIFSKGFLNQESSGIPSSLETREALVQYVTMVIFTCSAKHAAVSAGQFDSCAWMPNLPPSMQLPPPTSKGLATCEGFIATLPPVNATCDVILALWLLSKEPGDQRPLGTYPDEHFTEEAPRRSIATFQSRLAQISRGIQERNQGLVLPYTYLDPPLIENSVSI
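Purified human 15hLO-2 (50 nM final) preincubated with compounds 15 min at room temperature in 25 mM Hepes pH 7.5, 0.01% Triton X-100, then 45 uM arachidonic acid added for 90 min; hydroperoxide detected via ferrous/xylenol orange, 573/405 nm absorbance ratio.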
* hit, by the source's call; ? = inconclusive; . = not tested or not shown; [ ] = dose if it differs, or a comment. Unless noted, the call rests on the fitted dose curve; in most records, active means well fitted curve in the direction sought with a large enough effect; inconclusive means small, poorly fitted or top-dose-only effect, or another doubt; inactive means no such curve, though single readings can be large; an effect the other way counts as inactive or inconclusive. Unless noted, on the % scale 0 is the no-effect control and ±100 the full control effect. Some of the compounds tested; the hit share may differ from the screen's.

Below each compound – 12-hLO inh, IMPase cell inh, 15-hLO-2 inh
C[C@@H](C(=O)Nc1ccc2ccccc2c1)[C@@H]1C[C@@]1(C)[C@@H](NS(=O)(=O)c1ccccc1)c1ccccc1
    -3%, ., 0%
CCN(CC)CCN1C(=O)C(=O)/C(=C(/O)c2cccc(OC)c2)C1c1ccccn1 (stereo not given)
    -9%, 7, -6%
O=C(NCC1CCCO1)C1CCN(S(=O)(=O)N2CCCC2)CC1 (stereo not given)
    -1%, 10, -2%
Cc1ccc(CNC(=O)CCNC(=O)c2ccco2)cc1
    -3%, -1, 2%
Cc1ccc(-n2c(C)cc(C3=NNC(=NC4CC4)SC3)c2C)cc1C
    -13%, 8, .
Cc1ccc(-n2c(=O)cc(N3CCC(C)CC3)[nH]c2=O)cc1
    2%, 0, .
COc1ccc(N2C(=O)CSC23CCC(C(C)(C)C)CC3)cc1 (stereo not given)
    1%, 8, -3%
CCNC(=S)NNC(=O)c1cccs1
    1%, -6, -10%
Cc1cccc(-n2c(C)cc(/C=N/n3cnnc3)c2C)c1
    -7%, 12, 26%
Cc1ccc2c(n1)CC(C)(C)CC2=O
    -3%, 12, 3%
Cc1nc(NC(=O)c2ccc(Cl)cc2)sc1-c1csc(Nc2cccc(F)c2)n1
    -3%, 16, 7%
Cc1ccc(F)cc1NC(=O)C12CC3CC(C1)CC(n1cnc([N+](=O)[O-])n1)(C3)C2
    4%, 7, -1%
CN(C)c1nc(N(C)C)nc(N(C)C)n1
    -3%, 1, 3%
CCOc1ccc(N=C2NC(=O)S/C2=C\c2ccc(O)cc2)cc1
    2%, -3, -24%
CCN(CC)S(=O)(=O)c1cc(-c2nn(C)c(=O)c3ccccc23)ccc1C
    0%, 0, -9%
COc1ccc(Nc2nc(N)nc(CN(C)C3CCCCC3)n2)cc1
    7%, 0, 48%[activator]
CCCOc1ccc(C2C(C(=O)c3ccco3)=C(O)C(=O)N2CCN2CCOCC2)cc1OC (stereo not given)
    -3%, -3, -10%
CCN(CC)CCn1c2ccccc2c2cnc(N)c(C#N)c21
    -3%, 7, 33%[activator]
CNCCCC12CCC(c3ccccc31)c1ccccc12
    0%, ?, 33%[activator]
COC(=O)N(C)c1ccccc1C(=O)N1CCOCC1
    -5%, -1, -5%

A draw from above in order of formula weight, highest first:
Below each compound – 12-hLO inh, IMPase cell inh, 15-hLO-2 inh
CCN(CC)CCN1C(=O)C(=O)/C(=C(/O)c2cccc(OC)c2)C1c1ccccn1 (stereo not given)
    -9%, 7, -6%
Cc1ccc(F)cc1NC(=O)C12CC3CC(C1)CC(n1cnc([N+](=O)[O-])n1)(C3)C2
    4%, 7, -1%
Cc1ccc(-n2c(C)cc(C3=NNC(=NC4CC4)SC3)c2C)cc1C
    -13%, 8, .
CCN(CC)CCn1c2ccccc2c2cnc(N)c(C#N)c21
    -3%, 7, 33%[activator]
Cc1ccc(-n2c(=O)cc(N3CCC(C)CC3)[nH]c2=O)cc1
    2%, 0, .
Cc1ccc2c(n1)CC(C)(C)CC2=O
    -3%, 12, 3%

(cont.)
SMILES | 12-hLO inh | IMPase cell inh | 15-hLO-2 inh
CCNC(=S)NNC(=O)c1csc2ccccc12 | 2% | 2 | -6%
CCc1nc(SCC(=O)c2cccs2)c2oc3ccccc3c2n1 | -2% | 3 | 4%
O=C1NN(c2ccccc2)C(=O)/C1=C\c1ccccc1OCC(=O)N1CCOCC1 | 1% | 1 | -6%
O=C1CSC(c2ccccn2)N1c1ccc2ccccc2c1 (stereo not given) | 4% | 6 | -9%
C[N+]1(CC(=O)Nc2ccc(F)cc2)CCN(C(=O)c2ccco2)CC1 | 4% | 14 | 11%
Cc1cnc(C(=O)OCC(=O)N(C(C)C)C(C)C)cn1 | -2% | -3 | -3%
CCOc1cc(/C=N/O)ccc1OS(=O)(=O)c1ccc(C)cc1 | 0% | 4 | -7%
NS(=O)(=O)c1cc2c(cc1Cl)NC=NS2(=O)=O | -2% | 1 | -4%

Quoted at random: 3 records from the list.
SMILES | 12-hLO inh | IMPase cell inh | 15-hLO-2 inh
NS(=O)(=O)c1cc2c(cc1Cl)NC=NS2(=O)=O | -2% | 1 | -4%
O=C1CSC(c2ccccn2)N1c1ccc2ccccc2c1 (stereo not given) | 4% | 6 | -9%
CCOc1cc(/C=N/O)ccc1OS(=O)(=O)c1ccc(C)cc1 | 0% | 4 | -7%

An excerpt from above with just 15-hLO-2 inh and IMPase cell inh.
structure,15-hLO-2 inh,IMPase cell inh
CNCCCC12CCC(c3ccccc31)c1ccccc12,33%[activator],?
CCN(CC)CCn1c2ccccc2c2cnc(N)c(C#N)c21,33%[activator],7
